Assay outcomes deposited in PubChem by Broad Institute.
Cneo AK release – Cryptococcus neoformans lysis via adenylate kinase release; AID 651654; lysis activity, % at 15 µM; 360,000 compounds, 0.2% hits; C. neoformans lysis, adenylate kinase release luminescence, 4 h; normalised: neutral wells 0, clomiphene wells 100;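 active = mean lysis activity across replicates of at least 80%, whatever share of replicates individually reach that level; inactive = mean lysis activity below 80%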
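Test system: log-phase Cryptococcus neoformans yeast cells; Quantity: yeast cell density of 5 × 10^6 cells/mL; Buffer or medium: YPD; Doses: single compound concentration per well; Timing: 4 h at 37 °C static, read 1 h later; Measured by: AK luminescence; Read-out basis: lysis from increased AK signal; Control set: Clomiphene as positive control.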
Statin myotox sup – protects C2C12 myotubes from simvastatin toxicity; ATP luminescence, 48 h; scaled: DMSO 0, geranylgeraniol control 100; AID 602340; rescue of ATP level, % at 7.49 µM; 330,000 compounds, 0.78% hits;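 active = mean ATP rescue above about 67%, or every replicate alone reaching that limit, limit read from the data, passing the limit was not always enough; inconclusive = no clear call, values can overlap the other calls; inactive = mean under the limit and some replicate under it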;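 note: myotubes were challenged with 10 µM simvastatin during compound exposure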
SIRT5 inh – sirtuin-5 (human) deacylase inhibition | Q9NXA8 | Purified SirT5, succinyl-peptide AMC, trypsin-coupled fluorescence | inhibition, % at 15 µM | 330,000 compounds, 1.1% hits; in the data active = inhibition above about 15%; inconclusive = no clear call, values can overlap the other calls
Target sequence (Q9NXA8 whole entry, looked up): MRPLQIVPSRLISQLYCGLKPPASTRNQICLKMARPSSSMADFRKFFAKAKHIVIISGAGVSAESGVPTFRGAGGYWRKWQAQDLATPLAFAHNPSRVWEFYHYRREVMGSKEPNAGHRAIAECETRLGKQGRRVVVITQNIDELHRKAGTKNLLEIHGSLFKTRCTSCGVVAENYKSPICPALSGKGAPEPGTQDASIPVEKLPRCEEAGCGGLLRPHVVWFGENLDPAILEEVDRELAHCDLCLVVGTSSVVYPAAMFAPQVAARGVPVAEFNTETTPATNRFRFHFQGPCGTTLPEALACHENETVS
esBAF inh – SWI/SNF esBAF complex inhibition. 350,000 compounds, 2% hits. reporter increase, % at 12.5 µM. mouse ES cells, Bmi1-luciferase knock-in reporter, 24 h; 100% = twice the neutral-well signal. AID 602393; in the data active = activation above about 40%; inconclusive = no clear call, values can overlap the other calls;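 note: 0% = median of the plate's neutral control wells and 100% = double that signal; a rise in the Bmi1 reporter signal indicates esBAF inhibition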
miR-122 sensor – miR-122 inhibition in Huh7 cells; Huh7 miR-122 Renilla luciferase sensor, 48 h; neutral wells = 0, positive control = 100; activation (reporter increase), % at 12.5 µM; 340,000 compounds, 0.3% hits;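 active = mean replicate activation score at least 90 and every replicate individually at or above 90; inconclusive = only one of the two criteria met; inactive = neither criterion met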;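 note: higher luciferase means less miR-122 activity so hits act as miR-122 inhibitors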
ERp5 block – ERp5 (human) disulfide isomerase inhibition; ERp5 insulin aggregation, absorbance 650 nm, 90 min; inhibition, % at 9.99 µM; 350,000 compounds, 0.05% hits;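 active = mean replicate inhibition above about 25%, with every replicate also reaching it, limit read from the data, passing the limit was not always enough; inconclusive = only one of those two criteria met; inactive = neither criterion met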
Target sequence (Q15084 whole entry, looked up): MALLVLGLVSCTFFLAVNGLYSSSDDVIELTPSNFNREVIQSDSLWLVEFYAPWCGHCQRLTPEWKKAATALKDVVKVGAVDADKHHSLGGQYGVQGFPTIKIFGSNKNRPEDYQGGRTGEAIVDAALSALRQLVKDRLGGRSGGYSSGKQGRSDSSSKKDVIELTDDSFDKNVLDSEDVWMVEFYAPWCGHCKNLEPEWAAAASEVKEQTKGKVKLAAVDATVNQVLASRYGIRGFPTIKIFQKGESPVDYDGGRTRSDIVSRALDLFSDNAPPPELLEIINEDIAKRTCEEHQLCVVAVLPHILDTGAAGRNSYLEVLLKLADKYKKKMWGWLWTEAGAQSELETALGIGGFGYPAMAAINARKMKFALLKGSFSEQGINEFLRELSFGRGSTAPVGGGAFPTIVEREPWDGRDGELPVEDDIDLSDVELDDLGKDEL
* marks the source's active call; other numbers are inactive results; ? = inconclusive; . = no result given; & = joins results of further samples; ! = repeats disagree; [ ] = remark or other dose. A portion of the library. The share of hits here may be higher or lower than overall.

SMILES	Cneo AK release	Statin myotox sup	SIRT5 inh	esBAF inh	miR-122 sensor	ERp5 block
CCNC(=O)Nc1ccc2c(c1)C(=O)N(C)[C@@H]1CC[C@H](CC(=O)N[C@H](C)c3ccccc3)O[C@H]1CO2	3	-10	2	4	.	1
C[C@H]1[C@H](NC(=O)C(=NOC(C)(C)C(=O)O)c2csc(N)n2)C(=O)N1S(=O)(=O)O	0	-1	0	-2	-5	3
O=C(O)c1cc(-c2ccccc2Cl)n[nH]1	4	.	.	.	-5	.
CC1CN(C(=O)COC(=O)Cc2c(F)cccc2Cl)CC(C)O1 (stereo not given)	1	-3	-2	-6	.	-6
Cc1sc(NC(=O)C2CC(Cl)=CCC2C(=O)O)c(C#N)c1C (stereo not given)	.	.	1	.	.	-3
CC(=O)c1ccc(NC(=O)CSc2nnc(-c3ccoc3C)n2Cc2ccccc2)cc1	5	-12	.	18	11	.
CNC[C@H]1Oc2c(NS(=O)(=O)c3cccs3)cccc2C(=O)N([C@H](C)CO)C[C@@H]1C	96*!	11&-13	5&-3	-2&12	19[16.7 µM]	3&-2
CC(OC(=O)Cc1c(F)cccc1Cl)C(=O)NC1(C#N)CCCCC1 (stereo not given)	1	4	0	-6	-1	0
COc1ccc(/C=C2\N=C(C)N(c3ccc(C(=O)O)cc3)C2=O)cc1OC	.	37	.	-4	-1	.
COc1cnc(-c2ccccn2)nc1Sc1ccc(C)cc1	.	.	0	.	3	7
Cc1c(C(=O)OCC(=O)N(C)Cc2ccc(Cl)cc2)oc2ccccc12	-3	4	-5	-2	-3	.
CCCc1cc(C(=O)Cc2ccc(C(=O)OCC)o2)c(O)cc1O	1	-8	.	1	3	.
COc1cnc(-c2ccccn2)nc1NC(C)C	.	.	2	.	.	-1
C[C@H](CO)N1C[C@H](C)[C@@H](CN(C)Cc2ccc(C(=O)O)cc2)Oc2ccc(NC(=O)Nc3cccc4ccccc34)cc2CC1=O	0	14	3	2	3[16.7 µM]	1
CC1=C(C(=O)Nc2ccccc2)C(c2ccncc2)n2nnnc2N1 (stereo not given)	-2	2	.	-5	18	.
CCOC(=O)c1cnc(-n2nc(C)cc2C)nc1NNc1nc(C)cc(C)n1	0	-8	-1	-6	-2	11
O=C1CCCC(O)=C1C=Nc1cccc(C(F)(F)F)c1	9	-17	0	14	-2	-4
CC(C)NC(=O)Nc1ccc2c(c1)CC(=O)N([C@H](C)CO)C[C@H](C)[C@@H](CN(C)Cc1ccc(Oc3ccccc3)cc1)O2	-3	60	13	-3	5[16.7 µM]	4
CC(=O)Nc1ccc(S(=O)(=O)Nc2cccc3cccnc23)cc1	0	24	.	4	7	-2
Cc1cc(NC(=O)CSc2nnc(-c3ccc([N+](=O)[O-])cc3)o2)no1	-3	-8	-5	5	-5	2
OC(CSc1c(Cl)cccc1Cl)CN1CCN(c2ccccc2F)CC1 (stereo not given)	0	172*	.	-5	-8	.
CCN(CC)CCNC(=O)c1ccc(N)cc1	0	0	-2	1	0	-3
CCS(=O)(=O)c1ccc(-c2cccc(NC(=O)c3ccco3)c2)nn1	-1	-2	-3	-3	-4	12
O=C(c1cccc([N+](=O)[O-])c1)N1CCN(C(=O)c2ccco2)CC1	0	1	-8	-2	2	-3
CC1(C)Cc2ccccc2C(C(=O)c2ccccc2)=N1	2	39	-2	-1	3	2
The list continues.
SMILES	Cneo AK release	Statin myotox sup	SIRT5 inh	esBAF inh	miR-122 sensor	ERp5 block
CC(C(=O)NC(C)(C)C)N(Cc1cccs1)C(=O)CCN1CCc2ccccc21 (stereo not given)	.	.	-1	.	.	-3
COCCNC(=O)C[C@@H]1C[C@@H]2c3cc(NC(=O)C4CCOCC4)ccc3O[C@@H]2[C@@H](CO)O1	98*	0	3	-10	32[16.7 µM]	2
C[C@@H]1CCCCO[C@H](CN(C)C(=O)c2ccncc2)[C@H](C)CN([C@@H](C)CO)C(=O)c2cc(NC(=O)Cc3ccccc3)ccc2O1	0	36	1	-2	3[16.7 µM]	-1
C[C@H](CO)N1C[C@H](C)[C@H](CN(C)Cc2ccccc2)Oc2ncc(C#Cc3ccccn3)cc2C1=O	.	20	.	-8	3[16.7 µM]	.
COc1ccccc1Nc1nc(NCCO)nc(N2CCCC2)n1	3	-4	-2	4	.	-4
CCOC(=O)C1=NN(c2ccccc2)C2C(=O)N(c3ccccc3OC)C(=O)C12 (stereo not given)	5	-7	-2	-2	0	-1
CC(NC(=O)c1cc(COc2cccc(C(F)(F)F)c2)on1)c1nccs1 (stereo not given)	-4	-3	-2	61*	-3	-10
O=c1oc2c3c4c(cc2s1)CCCN4CCC3	-1	-4	.	-14	-22	.
COc1ccccc1N1CN(CCc2ccccc2)CNC1=S	.	.	.	.	.	-1
COc1ccc(Br)cc1/C=N/n1c(-c2ccccc2)n[nH]c1=S	3	-7	1	2	2	2
C[C@H](CO)N1C[C@H](C)[C@H](CN(C)C(=O)c2ccncc2)OCCCC[C@H](C)Oc2ccc(NC(=O)Cc3ccccc3)cc2C1=O	1	20	4	4	11[16.7 µM]	0
CCCCCCCC(=O)N/N=C/c1ccc([N+](=O)[O-])o1	.	2	2	0	0	9
CC(C)c1cc(C(=O)N/N=C/c2ccoc2)c(O)c(C(C)C)c1	2	-10	1	-8	-2	6
CCOC(=O)CSc1nnc(-c2ccc([N+](=O)[O-])cc2)o1	.	.	-3	.	.	5
CCOC(=O)c1cc2ccc3ccccc3c2oc1=O	-1	-1	24*	-8	0	0
CN(C)S(=O)(=O)c1cccc(NC(=O)CNCc2ccccn2)c1	11	35	0	-3	4	0
Cn1c(NC(=O)C(C)(C)Oc2ccc(Cl)cc2)cc(=O)n(C)c1=O	0	-8	-2	-3	0	-12
CC(C)[C@H](Nc1ccc(S(=O)(=O)N2CCOCC2)cc1[N+](=O)[O-])C(=O)OCC(=O)N(C(C)C)C(C)C	1	-6	.	0	-5	.
Cc1csc(NC(=O)CSc2nnc(-c3cc(C)on3)o2)n1	3	.	2	.	7	2
CC(C)NC(=O)C(OC(=O)c1ccccc1)C(OC(=O)c1ccccc1)C(=O)O (stereo not given)	6	2	.	-4	-10	.
O=C(Nc1cccnc1)c1cccc(S(=O)(=O)Nc2ccccc2F)c1	5	-9	1	6	26	15
Cc1cnn(C(=O)c2cc(-c3ccccn3)nc3ccc(Cl)cc23)c1	.	.	-2	.	.	-8
COc1ccc(C(=O)Nc2ccccc2C(=O)N/N=C/c2ccccn2)cc1OC	-10	.	2	.	1	4
N#Cc1cc2cc3c(cc2nc1NCCNC(=S)NCCCN1CCOCC1)OCO3	.	.	-8	.	.	-1
CCC(=O)NS(=O)(=O)c1cccnc1Nc1ccccc1Cl	1	6	.	-7	0	.
The results go on.
SMILES	Cneo AK release	Statin myotox sup	SIRT5 inh	esBAF inh	miR-122 sensor	ERp5 block
Cc1ccc(C(=O)N/N=C\c2ccc[nH]2)cn1	1	-10	.	12	-1	.
CCCCN1CCCCC1C(=O)Nc1c(C)cc(C)cc1C (stereo not given)	3	4	.	2	-4	.
CC(C)CCn1c2ccccc2c2cc(CC(N)=O)ccc21	.	.	-2	.	.	8
CC1=C(C(=O)OCc2ccccc2)C(c2cccnc2)n2nnnc2N1 (stereo not given)	2	.	.	.	-3	.
C[C@@H]1CCCCO[C@H](CN(C)C(=O)NC2CCCCC2)[C@H](C)CN([C@@H](C)CO)C(=O)c2cc(NC(=O)C3CCCCC3)ccc2O1	1	13	3	4	-8[16.7 µM]	3
CCCc1cc(-c2[nH]ncc2-c2ccc(C(=O)OCC)o2)c(O)cc1O	-1	-6	.	4	.	.
C=CC[C@@H]1Cc2c(Br)ccc(Br)c2[C@@H](CC=C)N1	-1	.	.	.	1	.
Cc1ccc(S(=O)(=O)N(C)C[C@@H]2Oc3c(NC(=O)NC4CCCCC4)cccc3C(=O)N([C@@H](C)CO)C[C@H]2C)cc1	-1	-1	5	0	-4[16.7 µM]	3
COc1cccc(OC)c1OCCOCCn1cnc2ccccc2c1=O	3	-16	.	15	8	.
COC(=O)C(C)Sc1nc2c(c(=O)n1-c1ccccc1)SCC2 (stereo not given)	2	-1	.	-3	2	.
O=C1Nc2cc(C(=O)N3CCOCC3)ccc2S/C1=C\c1ccccc1	0	-48	7	3	0	0
CCOC(=O)C1(Cc2ccc(OC)cc2)CCN(C(=O)C2CC(=O)N(C3CC3)C2)CC1 (stereo not given)	0	.	-1	.	-3	-2
CCOC(=O)C(=CNc1cc(C)ccc1-n1cccc1)C(=O)OCC	-2	.	-3	.	6	-7
NC(=O)c1ccc(NC(=O)COC(=O)C2(c3ccccc3F)CCCC2)cc1	.	.	-6	.	.	0
Cc1ccc(C(=O)N/N=C\c2ccc([N+](=O)[O-])o2)cn1	0	.	1	.	3	-3
Cc1cc(N/N=C(/CCC(=O)O)C(=O)O)nc2ccccc12	.	.	7	.	.	-4
O=C(O)c1c2c(nc3ccccc13)/C(=C/c1ccc(O)cc1)CC2	.	.	15	.	.	3
COc1ccc(CNC(=O)C[C@@H]2CC[C@@H]3[C@@H](COc4ccc(NC(=O)C5CC5)cc4C(=O)N3C)O2)cc1	4	-6	6	-7	-5[16.7 µM]	-2
CC(C)OCCCNC(=O)COCC(=O)Nc1ccc(OCCc2ccccc2)cc1	-1	-3	-9	7	-5	1
CC(C)NC(=O)Nc1ccc2c(c1)CC(=O)N([C@@H](C)CO)C[C@H](C)[C@@H](CN(C)Cc1ccc(Oc3ccccc3)cc1)O2	-4	28	-1	1	-10[16.7 µM]	0
Cc1nnc(SCC(=O)NNC(=O)c2ccccc2)n1Cc1ccccc1	-1	-2	-1	4	-6	-2
Cc1cc(C)n(-c2ncc3c(n2)N(C)CCOC3=O)n1	.	.	-1	.	.	0
COc1cc2c(cc1OC)CN(C(=O)CCCOc1ccc(Cl)cc1Cl)CC2	-1	17	.	0	.	.
CC(C)C(C(=O)N1CCOCC1)N1C(=O)c2ccccc2C1=O (stereo not given)	4	6	0	-1	-3	-1
CCNC(=O)Nc1ccc2c(c1)C(=O)N(C)[C@H]1CC[C@@H](CC(=O)N[C@@H](C)c3ccccc3)O[C@H]1CO2	2	0	4	-2	.	-2
Further records:
SMILES	Cneo AK release	Statin myotox sup	SIRT5 inh	esBAF inh	miR-122 sensor	ERp5 block
COc1cc2c(=O)c(-c3ccc(O)cc3)coc2cc1OC1OC(CO)C(O)C(O)C1O (stereo not given)	3	-8	.	36	-3	5
CCOC(=O)C1CCN(C(=O)CCc2ccc(S(=O)(=O)NC(C)C)cc2)CC1	1	-1	7	-2	-7	4
COc1cccc(/C=C/C(=O)c2cccc([N+](=O)[O-])c2)c1	.	.	-3	.	.	0
CC(C)NC(=O)Nc1cccc2c1O[C@H](CN(C)C(=O)Nc1ccc(C(F)(F)F)cc1)[C@@H](C)CN([C@@H](C)CO)C2=O	72	-4	6	1	21[16.7 µM]	3
COC(=O)Oc1ccc(/C=N/NC(=O)CSCc2ccccc2Br)cc1OC	.	1	.	-18	-2	.
C[C@@H]1CN([C@H](C)CO)C(=O)c2cccc(NC(=O)c3ccncc3)c2O[C@@H]1CN(C)Cc1ccc(-c2ccccc2)cc1	101*	14	3	-7	55[16.7 µM]	?
CN(C)c1ccnc2sc(C(N)=O)c(N)c12	-1	34	.	-25	5	.
CCCOC(=O)c1ccc(O)c(OC)c1	0	-8	.	-2	6	-3
CN(C)CCN(C(=O)CN1C(=O)c2ccccc2C1=O)c1nc2cc3c(cc2s1)OCO3	-2	2	-1	-4	-3	2
CCOC(=O)C(=O)N/N=C(/c1ccccc1)c1ccc(OC)cc1	-1	0	-2	4	.	-6
Cc1[nH]c(=O)[nH]c(=O)c1S(=O)(=O)Nc1cccc(C(F)(F)F)c1	3	5	-5	7	0	0
